Biofilm kill mix: mixtures killing C. albicans biofilm; C. albicans biofilm persisters + clotrimazole, fluorescence viability; primary screen in compound mixtures of four per well; inhibition, % at 7.6 µM; 0.02% of 120,000 active; AID 1242;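 active means inhibition above 30.3% in the primary screen of four-compound pools, then above 30% when the compound was retested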;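 further: compounds exposed to preformed 24 h biofilms for 48 h; the number belongs to the whole pool; some results filed as inactive read as strong as hits; inactives centre near 12; 0% = biofilm with clotrimazole alone and 100% = kill control; retested singly at about 60 µM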
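System: C. albicans CAF4-2 wild-type biofilms; Medium: RPMI/MOPS medium, pH 7.0; Reagent: Clotrimazole, 50 µg/mL; Times: biofilm formation 24 h, compound exposure 48 h, 37 °C; Detection: 2-h Alamar Blue fluorescence, 535/590 nm excitation/emission; Evaluation: percent inhibition of biofilm viability.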
Starred values were filed as active, the others as inactive. Only part of the results is shown, so the mix of outcomes need not match the whole.

SMILES	Biofilm kill mix
O=C(CSc1nnc(Nc2ccccc2)s1)NCCN1C(=O)CSC1=O	31
C#CCOCCOCCOCCNc1nc(N2CCN(C(=O)[C@H]([C@@H](C)CC)n3cc([C@@H](N)CC(C)C)nn3)CC2)nc(N2CCN(C(=O)[C@H](Cc3ccc(O)cc3)n3cc([C@@H](N)CC(C)C)nn3)CC2)n1	13
Cn1cccc1CC(=O)N/N=C/c1ccc(Cl)cc1	12
COc1cc(C(=O)O)cc(NC(=O)c2ccco2)c1OC	6
O=C1N=C(N2CCN(c3ccccc3)CC2)S/C1=C\c1ccco1	17
COc1ccccc1C(NC(=O)C1CCCCC1)c1c(O)ccc2ccccc12 (configuration not stated)	6
C/C(=N\NC(=O)CCn1nc(C)cc1C)C(C)(C)C	8
CN(C)c1ccc(P(=O)(OCc2ccccc2)C(O)c2ccc(Br)cc2)cc1 (configuration not stated)	4
COC(=O)C(O)(CC(=O)Nc1cc(Cl)ccc1Cl)C(F)(F)F (configuration not stated)	14
CCOc1ccc(C2Nc3cccc4cccc(c34)N2)cc1OC	14
CCC1Oc2ccc(C)cc2N(CC(=O)NCc2cccs2)C1=O (configuration not stated)	2
CCOC(=O)c1sc(N)c(C(N)=O)c1C	1
CC(C)c1cc(CN2CCN(Cc3ccc(F)c(F)c3)C(CCO)C2)[nH]n1 (configuration not stated)	11
CN1CCN(NC(=O)c2cccc(Br)c2)CC1	15
CCC1=C2CC[C@H]3C(=O)NC(=O)[C@H]3[C@H]2[C@@]2(Cc3ccccc3)C(=NCC(=O)OC)OC(=O)N2C1=O	15
C/C(=N/OC(=O)C1CC1c1ccccc1)c1ccccc1 (configuration not stated)	7
Cc1ccc(-c2nc(CSc3nc4ccccc4c(=O)n3C)cs2)cc1	8
COC(=O)c1ccccc1NC(=O)N1CCN(Cc2ccco2)CC1	14
CCC1=C(OC(=O)N(CC)CC)N2C(=O)OC(=NCC(=O)OC)[C@]2(Cc2ccccc2)[C@H]2C1=CC[C@H]1C(=O)N(CC(=O)OC)C(=O)[C@H]12	11
CC(C)CNC(CC(=O)O)c1ccccc1 (configuration not stated)	20
CCNC(=S)N1CCn2cccc2C1c1ccc(F)cc1 (configuration not stated)	14
FC(F)C(F)(F)c1cc(-c2ccc(Cl)cc2)n[nH]1	8
CC1=[N+](C)N(c2ccccc2)C(=O)C1N=Cc1ccccc1Cl (configuration not stated)	15
O=C(CSc1nc(-c2ccccc2)nc2c1Cc1ccccc1O2)Nc1ccc(C(=O)O)cc1	-66
C/C(=N\NC(=O)Cc1c[nH]c2ccccc12)c1ccc2ccccc2c1	0
S=C1NC2(CCCCC2)Nc2ccccc21	18
CC(=O)Nc1ccc(NC(=O)C(F)(F)F)cc1	8
Cc1ccc(S(=O)(=O)c2nc(-c3ccco3)oc2NCC2CCCO2)cc1 (configuration not stated)	0
CCN(CC)c1ccc(/C=N/NC(=O)Cc2nnc(NC(=O)Nc3ccccc3)s2)cc1	4
COc1cccc(-c2cc(N3C(=O)Nc4ccccc4N3O)n[nH]2)c1	18
Cc1ccc(OCC(=O)NCc2cccs2)c([N+](=O)[O-])n1	3
COC(=O)c1ccc(Oc2coc3cc(OCc4ccc([N+](=O)[O-])cc4)ccc3c2=O)cc1	14
Cc1ccc(C)c(N2CCN(C(=O)c3ccc(Cn4c(=S)[nH]c5ccc(N6CCOCC6)cc5c4=O)cc3)CC2)c1	-1
Cc1ccc(C(=O)NCC(=O)N/N=C/c2sccc2C)cc1[N+](=O)[O-]	13
Cc1ccc2nc(Cl)c(CNCc3ccccc3)cc2c1	2
O=c1c2ccccc2nnn1-c1ccc(Br)cc1	17
CCOC(=O)Cn1c(=O)c(-c2ccccc2N)nc2ccccc21	11
Nc1ccc2cn[nH]c2c1	3
CC(C)Cn1c([N+](=O)[O-])nc2c1c(=O)[nH]c(=O)n2C	31
CCOc1ccc(CCN2CN(CC)CNC2=S)cc1OCC	9
Fc1ccccc1COc1ccc(Br)cc1CNCc1cccnc1	5
COc1ccc(Cc2nnc(N/N=C/c3ccc(O)cc3)[nH]c2=O)cc1OC	7
COc1ccc2c(Cl)c(C(=O)N/N=C3\CCCC(=O)C3)sc2c1	-4
C=CCNC(=O)C1CC2Cn3c(nc4ccccc43)C2N1C (configuration not stated)	18
Cc1sc2nc(-c3ccccc3)oc(=O)c2c1C	14
Cc1n[nH]c(C)c1CCN(C)Cc1cn(C)nc1-c1ccccc1F	36
Cc1cc(N/N=C/c2c(O)ccc3ccccc23)nc(-c2ccccc2O)n1	4
CNC(=O)NC(=O)CSc1nnc(-c2ccc(F)cc2)n1CC1CCCO1 (configuration not stated)	1
Cc1cc(C(F)F)nn1CC(=O)NCc1ccc(Cl)cc1Cl	11
O=C(NNC(=S)NCc1ccccc1)c1ccc2c(c1)OCO2	0
Continuation:
SMILES	Biofilm kill mix
COc1ccc2c(c1)CCC/C2=N\OC(=O)c1ccccc1F	17
CCCNC(=O)CN1C(=O)NC(Cc2c[nH]c3ccccc23)C1=O (configuration not stated)	14
COc1ccc(C(=O)/C=C/Nc2cc(C)ccn2)cc1	10
CCOc1ccc(N2C(=O)CC(Sc3nc(CC(C)C)ccc3C#N)C2=O)cc1 (configuration not stated)	24
CCOc1ccc(CCNC(=O)COC(=O)c2ccc(OC)c(OC)c2OC)cc1OCC	12
S=c1[nH]nc(COc2ccc(Cl)cc2)n1C1CCCCC1	9
CC1CCN(Cc2ccc(-c3nnn(CC(=O)Nc4ccccc4Cl)n3)cc2)CC1	10
COc1ccc(OC)c(Cc2nnc(CCC(=O)N3CCCCCC3)o2)c1	10
NC(=S)COc1ccccc1	19
CCOc1cc(CNCc2ccccn2)cc(Cl)c1OC	18
Cc1ccc(NC(=O)C2(N3CCC3=O)CCCCC2)cc1	8
O=C(CSc1nnc(-c2ccncc2)n1Cc1ccccc1)NC1CCCc2ccccc21 (configuration not stated)	16
CCOC(=O)Cc1c(C)nc2c(-c3ccccc3)cnn2c1C	44
CC1CCN(C2=C(NS(=O)(=O)c3ccccc3)C(=O)c3ccccc3C2=O)CC1	17
CSc1ccccc1NC(=O)c1ccc(CN2CCOCC2)cc1	18
COc1ccccc1/C=N/NC(=O)CN(C1=NS(=O)(=O)c2ccccc21)c1ccccc1	17
c1ccc(CNCc2ccc3c(c2)OCO3)nc1	20
Cc1csc2c(NC3CCN(Cc4ccccc4)CC3)ncnc12	12
CCOc1ccc(C2C(C(=O)/C=C/c3ccco3)=C(O)C(=O)N2CCN2CCOCC2)cc1OC (configuration not stated)	12
CCCC(=O)Nc1cc(C(=O)O)ccc1S(=O)(=O)c1ccc(Cl)cc1	11
O=C(NC(NC(=O)c1ccccc1)c1cccc([N+](=O)[O-])c1)c1ccccc1	-10
CC(=O)OCC(=O)Nc1ccc(SC(F)F)cc1	0
Cc1cccc(NC(=O)CSc2ccc(-c3ccccn3)nn2)c1C	18
COc1cccc(C2c3[nH]c4ccccc4c3CCN2CCCn2cccn2)c1 (configuration not stated)	14
CCOc1ccc(N2C(=O)/C(=C/c3cccs3)N(C)C2=S)cc1	8
O=C(NC1CCCCC1)c1ccccc1-c1ccccc1	8
COC(=O)c1ccc(N2Cc3ccccc3/C2=N\C(=O)Nc2ccccc2)cc1	8
Cc1cc(Cl)ccc1OCC(=O)n1cc(C(=O)c2cc(Cl)ccc2O)cn1	23
Cn1c(SCC(=O)N2c3ccccc3CCc3ccccc32)nnc1-c1ccc(O)cc1	16
Cc1nnc(Nc2ccc(O)cc2)[nH]c1=O	12
COc1cccc(C(=O)NNC(=O)Cc2ccc([N+](=O)[O-])cc2)c1	5
O=C(CCC(=O)NNC(=O)Cc1ccccc1)NCc1ccccc1	3
Cc1ccc(C(=O)Nc2ccc(Oc3cccc(C(F)(F)F)c3)nc2)cc1	15
CCOC(=O)CSc1ccc(C(=O)Nc2ccc(Cl)cc2)cn1	17
CCC1(C)N=C(N)Nc2nc3cc(C)c(C)cc3n21 (configuration not stated)	8
Cc1ccc(-n2c(SCC(=O)c3c(N)n(C)c(=O)n(C)c3=O)nc3sc4c(c3c2=O)CCCC4)c(C)c1	11
C=CS(=O)c1sc(Cl)c(N2CCOCC2)c1[N+](=O)[O-] (configuration not stated)	18
COc1ccc(N(CCC(=O)O)S(=O)(=O)c2ccc(C)c(C)c2)cc1	19
c1ccc(CSc2nnc(-c3cccnc3)o2)cc1	20
Cc1ccc(-c2nnc(-c3ccccc3)c(-c3ccccc3)n2)cc1	-10
N=C1S/C(=C\c2cccc3ccccc23)C(=O)N1c1ccc(F)cc1	24
N#C/C(=C\c1ccc(OC(=O)c2cccs2)cc1)c1nc2ccccc2[nH]1	13
CCCCCC(=O)Nc1cccc(C2=NOC3(C2)C[C@@H](C(N)=O)N(C(=O)C2(C)CC2)C3)c1 (some centres not stated)	13
CSc1ccc(NC(=O)Nc2ccccc2C(N)=O)cc1	14
Cc1cccc(-c2cc3nc(C)cc(C)n3n2)c1	24
Cc1nc(=O)c(-c2ccccc2)c(C)n1-c1ccccc1O	-2
CN1/C(=C\C(=O)CSc2ncn[nH]2)C(C)(C)c2ccccc21	15
Nc1nc2n(n1)C(c1ccco1)CC(c1ccc(Cl)cc1Cl)N2 (configuration not stated)	13
Cn1nc(C(F)(F)F)c(-c2cccc(C(F)(F)F)c2)c1NC(=O)Nc1ccc(F)cc1	19
COc1ccc(C(=O)/C=C/c2ccc(OC3CSC3)cc2)cc1	6
Remaining list, next part.
SMILES	Biofilm kill mix
COc1ccc(N2CCN(C(=O)CN(C)S(=O)(=O)c3cnc[nH]3)CC2)cc1	15
C=CCOc1c(Br)cc(/C=N/NC(=O)Cc2ccc(C(F)(F)F)cc2[N+](=O)[O-])cc1OC	9
S=C(NCc1cccs1)Nc1ccccc1Cl	11
O=C1NC(=S)N/C1=C/c1cccc([N+](=O)[O-])c1	19
S=C(Nc1ccc2nccnc2c1)N1CCOCC1	55
Cn1c(NC(=O)C[n+]2cc(-c3ccc(Cl)cc3)n3c2CCC3)cc(=O)n(C)c1=O	11
CCOc1cc(/C=C(\C#N)C(=O)Nc2ccccc2[N+](=O)[O-])ccc1OCc1cccc2ccccc12	6
O=C1C2C3C=CC(C2C(=O)N1C1CCCCC1)C1C2C(=O)N(C4CCCCC4)C(=O)C2C31 (configuration not stated)	14
CC(C)(C)c1ccc(OCc2nnc(SCC(N)=O)n2N)cc1	5
Cc1c(NC(=O)C(C)OC(=O)c2cc(-c3cccc4ccccc34)nc3ccccc23)c(=O)n(-c2ccccc2)n1C (configuration not stated)	22
Cc1cc(SCC(=O)c2cccs2)nc2ccccc12	9
CCOC(=O)c1sc2nc(Cc3ccc(Cl)cc3)[nH]c(=S)c2c1C	-11
O=C(Nc1ccc(Oc2ncnc3cc(Cl)ccc23)nc1)Nc1cccc(C(F)(F)F)c1	16
CCOC(=O)CSc1nc2ccc(C)cc2[nH]1	7
Cc1ccc(OCCOCCN(C)C)c(Cl)c1	15
O/N=C1\CCCc2ccc3ccccc3c21	12
Cc1cccc(C2=N/C(=C\c3cccs3)C(=O)O2)c1	9
O=C(CCc1nc2ccccc2s1)OCC(=O)c1ccc[nH]1	4
Cn1ccnc1SCC(=O)Nc1ccc(Cl)cn1	2
Cc1cccc(C(=O)Oc2csc(=S)n2C(=O)c2cccc(C)c2)c1	14
Cc1cccc(NC(=S)Nn2cnnc2)c1C	13
O=C(CNCc1ccccc1)Nc1ccc(F)cc1	14
O=[N+]([O-])c1ccc(Oc2ccc(-c3cnc4ccccc4n3)cc2[N+](=O)[O-])cc1	18
O=C(Nc1ccccc1)C1=C[C@H](c2coc3ccccc3c2=O)C[C@H](OCCCCO)O1	20
COC(=O)Cn1c(=NC(=O)c2ccc(Cl)s2)sc2cc(F)ccc21	2
O=C1c2ccccc2C2(c3ccccc3)NCCCN12 (configuration not stated)	26
CCCCC(Sc1nc(N)c(NC(=O)c2ccc(OC)cc2)c(=O)[nH]1)C(=O)O (configuration not stated)	9
CCCC(=O)Nc1ccc(-c2csc(NNC(C)=O)n2)cc1	21
COc1ccc(N2CC(C(=O)O)CC2=O)cc1 (configuration not stated)	11
COCCNC(=O)/C(C#N)=C/c1ccccc1Br	-1
COc1ccc(C)cc1NC(=O)C(Sc1ccccc1)c1ccccc1 (configuration not stated)	10
O=C(NCC1CCCO1)C(c1ccccn1)N(Cc1ccccc1Cl)C(=O)CN1C(=O)c2ccccc2S1(=O)=O (configuration not stated)	27
O=C(CSc1nc(O)c(C(c2ccccc2)c2ccccc2)c(=O)[nH]1)N1CCOCC1	14

Grouped by structure, those above with a thiophene ring, fused or not
SMILES	Biofilm kill mix
CCC1Oc2ccc(C)cc2N(CC(=O)NCc2cccs2)C1=O (configuration not stated)	2
CCOC(=O)c1sc(N)c(C(N)=O)c1C	1
Cc1ccc(OCC(=O)NCc2cccs2)c([N+](=O)[O-])n1	3
Cc1ccc(C(=O)NCC(=O)N/N=C/c2sccc2C)cc1[N+](=O)[O-]	13
COc1ccc2c(Cl)c(C(=O)N/N=C3\CCCC(=O)C3)sc2c1	-4
Cc1sc2nc(-c3ccccc3)oc(=O)c2c1C	14
Cc1csc2c(NC3CCN(Cc4ccccc4)CC3)ncnc12	12
CCOc1ccc(N2C(=O)/C(=C/c3cccs3)N(C)C2=S)cc1	8
Cc1ccc(-n2c(SCC(=O)c3c(N)n(C)c(=O)n(C)c3=O)nc3sc4c(c3c2=O)CCCC4)c(C)c1	11
C=CS(=O)c1sc(Cl)c(N2CCOCC2)c1[N+](=O)[O-] (configuration not stated)	18
N#C/C(=C\c1ccc(OC(=O)c2cccs2)cc1)c1nc2ccccc2[nH]1	13
S=C(NCc1cccs1)Nc1ccccc1Cl	11
Cc1cc(SCC(=O)c2cccs2)nc2ccccc12	9
CCOC(=O)c1sc2nc(Cc3ccc(Cl)cc3)[nH]c(=S)c2c1C	-11
Cc1cccc(C2=N/C(=C\c3cccs3)C(=O)O2)c1	9
COC(=O)Cn1c(=NC(=O)c2ccc(Cl)s2)sc2cc(F)ccc21	2
